From PubChem BioAssay
TAR Tat displ: TAR RNA-Tat peptide displacers, HIV-1, primary screen, biochemical, FRET, FAM/TAMRA-labeled Tat. HIV-1 TAR RNA, Tat peptide displacement FRET; active compounds read high. z-score (test concentration not listed). 100,000 tested, 0.6% active;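 note: score is relative to mean and SD of negative controls; some compounds called inactive have numbers as strong as hits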
CDC25B CDK2 inh: primary biochemical HTRF screen for blockers of M-phase inducer phosphatase 2 binding to CDK2/cyclin A; P30305+P24941; HTRF CDC25B-CDK2/CyclinA binding, anti-His/anti-Flag; active compounds read high; AID 1259370, 2018; z-score (test concentration not listed); 94,000 tested, 0.72% active;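 note: score is relative to mean and SD of negative controls; strong numbers were not always called active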
Active calls of the source: *; · = no result given.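 Rule for the calls: active = z-score from 3 up in half or more of its runs; inactive = the rest.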

SMILES	TAR Tat displ	CDC25B CDK2 inh
N/C(Cc1ccc(F)cc1F)=N\OC(=O)c1cccc(C(F)(F)F)c1	·	-1.3
C=CCNS(=O)(=O)c1cccc2cc(C(=O)O)c(O)cc12	1.7	-1.1
Cc1c2c(=O)n(-c3nc4ccccc4s3)nc-2cc(O)n1CCc1cnc[nH]1	26*	-0.36
CCN1CCCC1CNC(=O)Cn1ncc2c3ccccc3n(C)c2c1=O (centres undefined)	1.8	-1.8
CC(C)N(Cc1cc(=O)[nH]c2ccccc12)C(=O)c1ccco1	0.25	-0.97
CC(=O)/C=C(/C)NC(Cc1ccccc1)C(=O)O (centres undefined)	·	-0.72
O=C(c1ccco1)c1n[nH]nc1-c1ccccc1	-0.75	-2.7
CCOc1ccc(NC(=O)C2=Cc3sc4c(c3CS2)CCCC4)cc1	-1	·
Nc1ncnc2nc(SCCc3ccccc3)[nH]c12	·	0.96
CCC(C)NS(=O)(=O)c1cc(-c2cnc(C)o2)ccc1C (centres undefined)	-0.14	·
CCc1ccc(-c2[nH]nc3nc(-c4ccc(C)cc4)cc(C(=O)O)c23)cc1	2.4	·
Cc1cccnc1Nc1nc(-c2ccccn2)cs1	1.1	-0.7
COC(=O)CSc1ccc2nnc(-c3ccc(OC)c(OC)c3)n2n1	·	-0.55
CC(C)NC(=O)Cn1ncn2c(cc3ccccc32)c1=O	0.89	-1.4
CCOC(=O)CC1=Nn2c(nnc2-c2ccccc2)SC1	0.89	-2
Cn1cc(S(=O)(=O)N2CCCC2)cc1C(=O)NC1CCCCC1	1.8	·
O=C(O)c1ccc(N2CCOc3ccccc32)s1	2.7	-8.4
Cc1[nH]nc(-c2ccc(S(=O)(=O)N3CCN(c4cccc(Cl)c4)CC3)s2)c1C	0.51	·
CN(CCNc1nc(-c2ccccc2)no1)C1CCCCC1	0.29	·
CC1CCN(C(=O)CSc2ncnc3c2oc2ccccc23)CC1	·	-0.54
O=C(CCC(NC(=O)OCc1ccccc1)C(=O)O)OCc1ccccc1 (centres undefined)	·	-0.14
O=c1cc(NCc2ccccc2)[nH]nc1-c1ccccc1	·	-1.9
O=C1NC(=O)c2cc(S(=O)(=O)NCCCO)cc3cccc1c23	-0.46	-1.5
O=S(=O)(Cc1ccc(F)cc1)c1oc(-c2cccs2)nc1S(=O)(=O)c1ccccc1	0.45	-2.1
COc1ccc(C2C3=C(CC(C)(C)CC3=O)Nc3ncnn32)cc1OC (centres undefined)	1.6	·
CCOC(=O)c1noc2nc(C)nc(Nc3ccc(OC)c(Cl)c3)c12	0.95	·
CCCCCCCCc1ccc(C(=O)O)cc1	·	-2.7
COCCn1c(C2CC(=O)N(c3ccccc3Cl)C2)nc2ccccc21 (centres undefined)	-1.1	-1.1
O=C(Nc1nnc(CCS(=O)(=O)c2ccc(Br)cc2)s1)c1ccccc1	·	0.14
COc1cc2c(cc1OC)C(c1cc(OC)c(OC)cc1OC)CC(=O)N2 (centres undefined)	·	-2.5
COc1ccc(C2c3c(oc4ccccc4c3=O)C(=O)N2c2nncs2)cc1 (centres undefined)	0.45	-1.7
Cc1ccc(CNS(=O)(=O)c2cn(C)c(C)n2)cc1	1.1	·
Cc1ccc(NC(=O)CN(C2=NC3CS(=O)(=O)CC3S2)c2ccc(C)c(C)c2)cc1 (centres undefined)	-1	0.4
CC1Cc2cc(S(=O)(=O)N3CCC(N4CCCCC4)CC3)ccc2N1C(=O)C1CC1 (centres undefined)	0.35	·
COc1ccc2c(c1)c(C)c(C)n2CCc1ccc(C)nc1	·	-0.2
COC(=O)c1c(C)oc2ccc(O)c(CN3CCOCC3)c12	-0.54	-1.2
COc1cc(C(=O)OCCCN=C2NS(=O)(=O)c3ccccc32)cc(OC)c1OC	·	-1.4
O=C(CSc1nccn(-c2cccc(Cl)c2)c1=O)NC1CCCCC1	-0.83	·
CN1C(=O)C(C)(C)c2cc(S(=O)(=O)Nc3cccc(F)c3)ccc21	1.4	·
CCN1c2ccccc2-c2nc3ccccc3n2C1c1ccco1 (centres undefined)	-0.55	-0.7
Cc1ccc(C)c(-n2nnc(-c3nc(-c4ccccc4)no3)c2N)c1	-0.62	·
O=C(CCc1nnc2ccc(NCc3ccc4c(c3)OCO4)nn12)Nc1nccs1	1.7	·
CN(C)C(=O)Oc1ccc[n+](C)c1	0.45	-1.2
COc1c(C)cc(S(=O)(=O)NC2CC(C)(C)NC(C)(C)C2)c(C)c1C	1.1	-1.1
CCOC(=O)C1CCN(c2nc3c(S(=O)(=O)c4ccccc4)nnn3c3ccc(Cl)cc23)CC1	0.3	-2.1

Full records as entered above:
CN(C)C(=O)Oc1ccc[n+](C)c1 as listed: TAR Tat displ: 0.45; CDC25B CDK2 inh: -1.2
O=C(c1ccco1)c1n[nH]nc1-c1ccccc1 as listed: TAR Tat displ: -0.75; CDC25B CDK2 inh: -2.7

Remaining list, next part
SMILES	TAR Tat displ	CDC25B CDK2 inh
CN(C(=O)c1cc(S(=O)(=O)N2CCc3ccccc32)cn1C)C1CCCCC1	1.2	-0.4
COc1ccc(CNc2nn[nH]n2)cc1OC	-0.32	-0.06
Cc1ccc(-n2ncc3c(NCC4CCCO4)ncnc32)cc1C (centres undefined)	1.8	·
O=C(Cn1ncc2c3ccccc3n(Cc3ccccc3)c2c1=O)NCc1ccc2c(c1)OCO2	-0.84	0.27
CN(Cc1nc(-c2ccc(Cl)cc2)no1)S(=O)(=O)c1ccccc1	2	-2.5
C=C(C)Cn1c(C2CC(=O)N(c3ccc(C)c(C)c3)C2)nc2ccccc21 (centres undefined)	1.8	-0.65
COC(=O)c1cccc(CSc2nc(-c3ccccc3)c(C#N)c(=O)[nH]2)c1	-0.94	-2.6
Cc1ccc(CNC(=O)CCc2nc3sc4c(c3c(=O)[nH]2)CCC(C(C)(C)C)C4)o1 (centres undefined)	-1.5	·
CN1CCN(CCCNC(=O)CCC(=O)N2CCOc3ccccc32)CC1	-1.1	-1.3
CCOC(=O)C1=C(C)N=C2c3ccccc3C(=O)C2C1c1ccc(Br)cc1 (centres undefined)	1.1	-1.4
Cc1ncc(CN2CCSCC2)c(CO)c1O	·	-1.1
Cc1ccc(-c2n[nH]c3c2C(c2cccc(Br)c2)NC3=O)cc1 (centres undefined)	1.3	·
Cc1nc2c(c(SCC(=O)Nc3ccc(S(=O)(=O)N4CCOCC4)cc3)n1)CCC2	-0.32	-1.7
COc1ccc(OC)c(-n2nnc(-c3nc(-c4ccc5c(c4)OCO5)no3)c2C)c1	-0.18	·
CC1CCCCN1c1c(S(=O)(=O)c2ccccc2)cnc2ccc(F)cc12 (centres undefined)	0.75	0.23

A different layout for some results above:
Results follow in this order: TAR Tat displ | CDC25B CDK2 inh
CN1C(=O)C(C)(C)c2cc(S(=O)(=O)Nc3cccc(F)c3)ccc21
 : 1.4 | ·
CCN1c2ccccc2-c2nc3ccccc3n2C1c1ccco1 (centres undefined)
 : -0.55 | -0.7
Cc1ccc(C)c(-n2nnc(-c3nc(-c4ccccc4)no3)c2N)c1
 : -0.62 | ·
O=C(CCc1nnc2ccc(NCc3ccc4c(c3)OCO4)nn12)Nc1nccs1
 : 1.7 | ·
CN(C)C(=O)Oc1ccc[n+](C)c1
 : 0.45 | -1.2
COc1c(C)cc(S(=O)(=O)NC2CC(C)(C)NC(C)(C)C2)c(C)c1C
 : 1.1 | -1.1
CCOC(=O)C1CCN(c2nc3c(S(=O)(=O)c4ccccc4)nnn3c3ccc(Cl)cc23)CC1
 : 0.3 | -2.1
CN(C(=O)c1cc(S(=O)(=O)N2CCc3ccccc32)cn1C)C1CCCCC1
 : 1.2 | -0.4
COc1ccc(CNc2nn[nH]n2)cc1OC
 : -0.32 | -0.06
Cc1ccc(-n2ncc3c(NCC4CCCO4)ncnc32)cc1C (centres undefined)
 : 1.8 | ·
O=C(Cn1ncc2c3ccccc3n(Cc3ccccc3)c2c1=O)NCc1ccc2c(c1)OCO2
 : -0.84 | 0.27
CN(Cc1nc(-c2ccc(Cl)cc2)no1)S(=O)(=O)c1ccccc1
 : 2 | -2.5
C=C(C)Cn1c(C2CC(=O)N(c3ccc(C)c(C)c3)C2)nc2ccccc21 (centres undefined)
 : 1.8 | -0.65
COC(=O)c1cccc(CSc2nc(-c3ccccc3)c(C#N)c(=O)[nH]2)c1
 : -0.94 | -2.6
Cc1ccc(CNC(=O)CCc2nc3sc4c(c3c(=O)[nH]2)CCC(C(C)(C)C)C4)o1 (centres undefined)
 : -1.5 | ·
CN1CCN(CCCNC(=O)CCC(=O)N2CCOc3ccccc32)CC1
 : -1.1 | -1.3
CCOC(=O)C1=C(C)N=C2c3ccccc3C(=O)C2C1c1ccc(Br)cc1 (centres undefined)
 : 1.1 | -1.4
Cc1ncc(CN2CCSCC2)c(CO)c1O
 : · | -1.1
Cc1ccc(-c2n[nH]c3c2C(c2cccc(Br)c2)NC3=O)cc1 (centres undefined)
 : 1.3 | ·
Cc1nc2c(c(SCC(=O)Nc3ccc(S(=O)(=O)N4CCOCC4)cc3)n1)CCC2
 : -0.32 | -1.7
COc1ccc(OC)c(-n2nnc(-c3nc(-c4ccc5c(c4)OCO5)no3)c2C)c1
 : -0.18 | ·
CC1CCCCN1c1c(S(=O)(=O)c2ccccc2)cnc2ccc(F)cc12 (centres undefined)
 : 0.75 | 0.23

(further entries)
SMILES	TAR Tat displ	CDC25B CDK2 inh
COC(=O)C1=NN(C(=O)c2cccc(OC)c2)C(O)(c2ccc(Cl)cc2)C1 (centres undefined)	·	0.2
COc1cc(Cl)c(NS(=O)(=O)c2ccc3c(c2)NC(=O)CCS3)c(OC)c1	-0.11	·
O=C(c1noc2c1CCc1sccc1-2)N1CCCC1	0.42	·
O=C(Cc1ccc(NC2=NC3CS(=O)(=O)CC3S2)cc1)NC1CCCC1 (centres undefined)	2.8	-2.3
COc1nc(OC)nc(N2CCN(c3ccccc3F)CC2)n1	0.92	-1.6
NC(N)=S	2.6	·
Cc1ccc(C(=O)c2ccc(Br)cc2)cc1S(=O)(=O)Nc1ccccn1	1.9	1
CCOC(=O)Cn1c(C2CC(=O)N(C)C2)nc2ccccc21 (centres undefined)	1	0.92
COc1ccc(C(=O)CC2(O)C(=O)Nc3ccc(Br)cc32)cc1 (centres undefined)	1.2	·
Cc1ccc(NC(=O)Nc2cc3sccc3n2C)cc1C	-1	7
COCCCNc1ncnc2onc(-c3ccc(F)cc3)c12	-1.8	·
COc1ccc2cc(C(=O)Nc3ccc(F)cc3)sc(=O)c2c1OC	3.9	0.7
CCc1nnc(NC(=O)C(=O)c2cc(C)n(CCOC)c2C)s1	3.8	-1.8
Cc1ccc(Nc2nc(N3CC(C)OC(C)C3)nc(N)c2[N+](=O)[O-])cc1 (centres undefined)	0.65	·
CCc1nc(N)c(C#N)c(-c2ccco2)c1C	-0.04	-0.94
CCOCCCN1C(=O)c2cc3sccc3n2CC1(C)C(=O)NC1CCCCC1 (centres undefined)	1.6	-1.8
C=CCN1C(=O)C2(/C(=C(/O)c3ccc(F)cc3)C(=O)C(=O)N2CCN(C)C)c2ccccc21 (centres undefined)	-1.1	-1.7
CC1Cn2cc(C(=O)Nc3cc(F)ccc3F)c(=O)c3c(Cl)ccc(c32)O1 (centres undefined)	0.65	·
CCCS(=O)(=O)c1nc(S(=O)(=O)c2ccc(C)cc2)c(NCc2ccccn2)s1	-0.15	-1.3
CC1CCCN(C(=O)CN2C(=O)CSc3ccc(S(=O)(=O)N4CCOCC4)cc32)C1 (centres undefined)	1.6	·
CCN(CC)CCNC(=O)Cn1c(=O)c2cccn2c2ccc(F)cc21	-0.2	·
CCN1CCN(C(=O)C2CCN(c3nc4cccnc4s3)CC2)CC1	0.25	·
Cc1cc2nc3nc(N)sc3nc2cc1C	·	-1.2
Cc1ccc2c(n1)sc1c(=O)n(-c3ccccc3Br)nnc12	1.4	1.5
O=S(=O)(c1ccccc1)N1CCN(Cc2ccc3c(c2)OCO3)CC1	1.2	-0.65
CCOC(=O)N1CCC(Nc2c(N3CCN(CC)CC3)c(=O)c2=O)CC1	-0.35	-1.2
COc1ccccc1NC(=O)CSc1nnc2c3ccccc3n(C)c2n1	2.3	-0.57
COc1ccc(OC)c(Nc2cc(C)nc3nnnn23)c1	0.18	-1.3
O=C(CSc1nccc(-c2cc(-c3ccccc3)no2)n1)Nc1ccc(C(F)(F)F)cc1	·	-0.76
C=CCNc1nc(C2(C)CC3(CC(COCC(C)C)OC3=O)C(=O)O2)cs1 (centres undefined)	-0.29	-1.8
CCOC(=O)Cc1nn[nH]n1	·	-1.7
COc1ccc(-n2c(C)cc(CNC(=O)Nc3ccc4c(c3)OCO4)c2C)cc1	-1	·
CCOC(=O)c1c(NC(=S)N2CCOCC2)sc(C)c1C	·	-2
Cn1cc(C(=O)O)c(=O)c2ccccc21	0.44	-1.2
COc1ccc(C2=NOC(C(=O)NC3CCCC3)C2)cc1 (centres undefined)	-1.5	-2
Cc1ccc2c(CC(=O)Nc3sc4c(c3C(=O)NCc3ccco3)CCC4)coc2c1	-0.91	-1.1
O=C(CCCN1C(=O)c2cccnc2Oc2ccccc21)NCc1ccco1	1.7	·
COc1ccc(OC)c(Nc2c(-c3ccc4c(c3)CCCC4)c(=O)c2=O)c1	0.58	·
CC(=O)NC1=NC(=O)/C(=C\c2ccc(-c3ccc(C)c([N+](=O)[O-])c3)o2)S1	·	-3.9
NC(=O)c1nc(-c2ccc3c(c2)OCCO3)nc2c1[nH]c(=O)n2-c1ccc(F)cc1	0.32	·

Random draw from the library; 0.87% or so of the library scored in one or more.
